Compound activity as filed in PubChem BioAssay.
GIV Gai3 FP – inhibitors of GIV GBA-motif binding to rat Galpha-i3. percent of control (FP), % (no concentration beside the values). Galpha-i3/FITC-GIV peptide fluorescence polarization, 90 min; active compounds read low; scaled: aluminum fluoride 0%, vehicle 100%. P08753. 210,000 tested, 0.42% active. AID 1224905;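 active = replicate mean at 85% of control or lower, very high polarization wells dropped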;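 also: wells of about 15 µL received 100 nL stock; the first replicate is given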
Target sequence (P08753 whole entry, looked up): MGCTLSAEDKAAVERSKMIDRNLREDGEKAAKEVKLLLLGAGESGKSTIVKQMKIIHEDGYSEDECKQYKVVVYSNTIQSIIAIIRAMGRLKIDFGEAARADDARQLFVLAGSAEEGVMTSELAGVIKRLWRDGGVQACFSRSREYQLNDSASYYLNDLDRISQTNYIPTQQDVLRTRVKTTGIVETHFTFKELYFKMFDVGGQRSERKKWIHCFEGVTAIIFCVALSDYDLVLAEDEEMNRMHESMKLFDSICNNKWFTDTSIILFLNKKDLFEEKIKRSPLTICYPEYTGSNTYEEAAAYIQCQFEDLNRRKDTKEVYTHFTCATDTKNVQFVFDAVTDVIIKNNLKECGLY
HCMV NEC inh – cytomegalovirus nuclear egress complex inhibition | HTRF UL50-UL53 interaction, normalized percent inhibition | inhibition, % (test concentration not listed) | 190,000 tested, 0.15% active | AID 1918969;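 active = both replicates at 50% or more, plus weaker picks with an unusually low signal ratio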;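 also: stock transfer was 100 nL into about 20 µL; 0% = negative control wells and 100% = wells with untagged competitor protein; inactives centre near -12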
Sa growth 42C – inhibitors of Staphylococcus aureus growth at 42 °C | relative growth, % (no concentration beside the values) | AID 720641 | S. aureus RN4220 growth, OD600, 20 h; active compounds read low | 170,000 tested, 0.53% active;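 active = growth at 42 °C up to 50% and 20 or more points under that at 30 °C, or under 10% at both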;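 also: 300 nL library stock went into each well; scaled to the means of positive and negative controls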
Sa growth 42C second temp – second read-out of Sa growth 42C, no call of its own (marks repeat the call); relative growth, %; measured here: growth at 30 °C;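 optical density after 20 h as mean of two plates; 100% = untreated growth and lower means inhibition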
Starred values were filed as active, the others as inactive; . = not tested or not shown. Rows are unselected; any-hit rate near 0.79%.

item	SMILES	HCMV NEC inh	Sa growth 42C	Sa growth 42C second temp	GIV Gai3 FP
1	COCCNC(=O)Cc1c(C)nc2c(-c3ccccc3)c(C)nn2c1C	-3	105	87	104
2	CO/N=C(\C(=O)O)c1csc(N)n1	-19	92	86	104
3	O=C(CSc1cccs1)Nc1ccc(F)c(Cl)c1	-12	101	89	107
4	CCOCCCNC(=O)c1nn(C)c2c1CSc1ccc(F)cc1-2	-30	.	.	100
5	Cc1ccc2nc(C)n3c4ccccc4c(NC=O)c3c2c1	.	86	79	100
6	NC(=S)NCC1CCCO1 (stereo unspecified)	-8	78	94	.
7	Cc1cc(C)c(C#N)c(SCC(=O)N(c2ccccc2)C2CCS(=O)(=O)C2)n1 (stereo unspecified)	-24	91	87	.
8	O=C(CC1c2ccccc2Oc2ccccc21)NCCOc1ccccc1Cl	.	100	72	99
9	CC1=C(C(=O)NCc2ccco2)C2(CCCCC2)OC1=O	.	75	85	97
10	O=C1CC(c2nc3ccccc3[nH]2)CN1c1cccc2ccccc12 (stereo unspecified)	-4	89	88	106
11	CCN(CC)S(=O)(=O)c1ccc(-c2csc(Nc3cccc(OC)c3)n2)cc1	-3	83	87	.
12	CC(Sc1nnc(Nc2ccc(C(C)C)cc2)s1)C(N)=O (stereo unspecified)	-8	95	95	.
13	Cc1nc(S(=O)(=O)N2CCC(C(=O)N3CCN(c4ccccc4F)CC3)CC2)cn1C	0	.	.	104
14	CCOC(=O)Cc1csc(SCC(=O)C(C#N)c2nc(C)cs2)n1 (stereo unspecified)	-3	71	42	.
15	N#Cc1ccc(C(=O)OCC(=O)NC23CC4CC(CC(C4)C2)C3)cc1	-10	133	88	.
16	CCOC(=O)Cc1c(C)nc2nc(N)[nH]n2c1=O	.	112	94	101
17	CCOC(=O)C1CCN(Cc2ccccc2)CC1=O (stereo unspecified)	-25	74	41	107
18	CCCOP(=O)(c1ccccc1)c1ccccc1	-14	108	104	95
19	CCCCCCNC(=O)C1CC(=O)N(CCc2c[nH]c3ccc(C)cc23)C1 (stereo unspecified)	-2	.	.	104
20	Cc1cccc(-c2nc(S(=O)(=O)c3ccc(F)cc3)c(N3CCN(c4ccccc4)CC3)o2)c1	11	93	92	103
21	Cn1[nH]c(CP(=O)(c2ccccc2)c2ccccc2)cc1=O	-38	90	98	.
22	CC(C)NC(=O)CCCN1C(=O)C(c2ccccc2)Oc2cccnc21 (stereo unspecified)	-32	94	86	106
23	CCOc1ccc(-c2cc(C)n3nc(C(=O)Nc4ccc(C)c(C)c4)cc3n2)cc1	-38	92	79	105
24	Cc1cc(C)n(CCSCC(=O)O)n1	-5	117	82	.
25	CCCNC(=O)Cn1c(=O)c2cccn2c2ccccc21	.	123	87	105

A different layout for part of the listing above.
Screens in order: HCMV NEC inh	Sa growth 42C	Sa growth 42C second temp	GIV Gai3 FP
19: CCCCCCNC(=O)C1CC(=O)N(CCc2c[nH]c3ccc(C)cc23)C1 (stereo unspecified)
→ -2	.	.	104
20: Cc1cccc(-c2nc(S(=O)(=O)c3ccc(F)cc3)c(N3CCN(c4ccccc4)CC3)o2)c1
→ 11	93	92	103

(more compounds)
item	SMILES	HCMV NEC inh	Sa growth 42C	Sa growth 42C second temp	GIV Gai3 FP
26	C=CCNS(=O)(=O)c1ccccc1C(F)(F)F	-28	108	82	.
27	CC1=CCCC(C)(C)C1/C=C/C(C)=N/O (stereo unspecified)	-5	97	112	98
28	O=C(Cn1nc(N2CCN(c3ccccc3)CC2)ccc1=O)NC1CC1	-39	.	.	109
29	O=C(NCC1OCCc2ccccc21)c1ccccc1 (stereo unspecified)	-3	111	93	105
30	Cc1cc(=O)oc2cc(OCC(=O)N3CCc4ccccc4C3)ccc12	-19	125	88	.
31	N#Cc1ccc(COC(=O)CNC(=O)c2ccccc2)cc1	-25	112	84	.
32	CC(C)NC(=O)C1CCN(c2ccc(S(=O)(=O)N3CCOCC3)cc2Cl)CC1	-8	123	92	94
33	CS(=O)(=O)Nc1nc2n(n1)C(c1ccccc1Cl)C=C(c1ccc(Br)cc1)N2 (stereo unspecified)	-46	.	.	96
34	COC(=O)CC1=CC(=O)N(Cc2cccc(Cl)c2)c2cc(C)c(C)cc2N1	-22	.	.	110
35	CC1Oc2cc(S(=O)(=O)N3CCN(C(=O)NCc4ccccc4)CC3)c(Cl)cc2NC1=O (stereo unspecified)	-3	.	.	105
36	Cc1ccc(Cl)cc1-n1ncc2c(N3CCC(C)CC3)ncnc21	.	120	84	101
37	Cc1cc2ncn(C(=O)N(C)C)c2cc1C	-23	93	89	102
38	O=C1/C(=C/c2cccc3ccccc23)Nc2ccccc21	-9	89	81	57*
39	Cc1oc(-c2ccccc2Cl)nc1CSc1nc2ncccc2[nH]1	.	101	91	103
40	O=C(Nc1ccc2oc3ccccc3c2c1)c1ccc2nc[nH]c2c1	-21	84	81	.
41	COc1ccc(-n2nc3c(c2NC(=O)c2ccccc2C(F)(F)F)CSC3)cc1	.	96	81	102
42	O=C(Nc1cc(F)ccc1F)C1CCN(c2nc3ccccc3n3cccc23)CC1	-23	90	94	101
43	O=C1CSc2ccc(C(=O)OCC(=O)N3CCCc4ccccc43)cc2N1	-9	96	77	.
44	CCn1c(=O)c(C(=O)CN2CCCCC2)c(N)n(Cc2ccccc2)c1=O	-5	84	96	.
45	O=C(c1ccccc1)C1CCN(S(=O)(=O)c2ccc(Cl)cc2)CC1	-42	106	92	97
46	CCc1nn(CC(=O)Nc2ccc(NC(C)=O)cc2)c(=O)c2cc3sccc3n12	-12	109	95	107
47	COc1ccc(CN2C3CCCC2CC(NC(=O)NC2CCCCC2)C3)cc1 (stereo unspecified)	-11	96	95	105
48	Cc1cc(C)n2nc(C(=O)OCc3ncc(-c4ccccc4)o3)nc2n1	-10	90	91	.
49	COCCCNc1nc(NCc2cccc(Cl)c2)c2cnn(C)c2n1	.	81	78	106
50	N#CCCN1CCN(S(=O)(=O)c2ccc(S(=O)(=O)N3CCCC3)cc2)CC1	-25	92	85	107
51	CCCN(Cc1cccs1)C(=O)Nc1ccc(F)c(Cl)c1	-2	122	78	101
52	Cc1cc2nc(C)c(CCC(=O)O)c(C)n2n1	-3	106	91	.
53	CCc1cccc(-n2nnc(S(=O)(=O)c3ccccc3)c2C)c1	-28	93	88	95
54	NC(=O)c1cccc(S(=O)(=O)N2CCOCC2)c1	-10	96	77	102
55	Cc1ccc(-c2cc(C(N)=O)c3cc(F)ccc3n2)cc1	-3	111	94	98
56	CCN1CCCC1CNC(=O)c1ccccc1Sc1ccccc1C#N (stereo unspecified)	-9	92	87	.
57	CC(Oc1ccc(Cl)cc1)C(=O)NCCCn1ccnc1 (stereo unspecified)	-14	97	83	102
58	S=C(NCc1ccc2c(c1)OCO2)N1CCN(c2ccccn2)CC1	0	121	82	.
59	CC1=NN(c2ccc(-c3csnn3)cc2)C(=O)C1	-38	102	88	100
60	COC(=O)C1=C(C)NC2=C(C(=O)CC(c3ccc4c(c3)OCO4)C2)C1c1ccc(Br)cc1 (stereo unspecified)	-4	.	.	98
61	Cc1ccc2ncc3c(-c4ccc(F)cc4)n[nH]c3c2c1	-21	.	.	98
62	Cc1nnc(N2CCCC(C(=O)NCc3cccc(F)c3)C2)c2nn(-c3ccc(Cl)cc3)c(C)c12 (stereo unspecified)	3	.	.	99
63	Cc1cc(NC2CCCCC2)n2ncnc2n1	-30	94	87	108
64	CC(C)CCN(Cc1ccco1)S(=O)(=O)c1csc(C(N)=O)c1	-29	80	78	101
65	CC1(C)Cc2nc3sc(C(=O)NCCO)c(N)c3cc2CS1	-29	97	97	98
66	Fc1ccc(-c2cc(-c3cc(F)cc(F)c3)n3ncnc3n2)cc1	13	.	.	102
67	CNc1ccccc1C(=O)OCC(=O)c1c[nH]c2ccccc12	-34	85	97	.
68	CCCN(C(=O)C(C)C)c1nnc(-c2cc(OC)c(OC)c(OC)c2)s1	20	81	82	102
69	CC(=O)NC1=NN(C(C)=O)C(c2cccc3ccccc23)N1C(C)=O (stereo unspecified)	-29	118	88	103
70	Cc1cccn2c(=O)cc(CN3CCN(c4cnn(-c5ccccc5)c(=O)c4Cl)CC3)nc12	-73	78	89	.
71	O=C1C=C(Nc2ccc(F)c(C(F)(F)F)c2)c2ccccc2C1=O	48	89	58	.
72	CC(=O)NCC1OCCc2ccccc21 (stereo unspecified)	-12	90	79	98
73	CC(=O)Nc1ccc(SCC(=O)N(C)Cc2ccco2)cc1	-31	80	90	.
74	Cc1c(Cl)cccc1-n1ncc(C(=O)NCCN2CCN(C)CC2)c1C1CCN(C(=O)OC(C)(C)C)CC1	.	92	82	108
75	COc1cccc(N(C(=O)C(F)(F)F)C(C(=O)NC2CCCC2)c2cccs2)c1 (stereo unspecified)	-11	116	88	.

From compound 61 up to 75, as listed above:
item	SMILES	HCMV NEC inh	Sa growth 42C	Sa growth 42C second temp	GIV Gai3 FP
61	Cc1ccc2ncc3c(-c4ccc(F)cc4)n[nH]c3c2c1	-21	.	.	98
62	Cc1nnc(N2CCCC(C(=O)NCc3cccc(F)c3)C2)c2nn(-c3ccc(Cl)cc3)c(C)c12 (stereo unspecified)	3	.	.	99
63	Cc1cc(NC2CCCCC2)n2ncnc2n1	-30	94	87	108
64	CC(C)CCN(Cc1ccco1)S(=O)(=O)c1csc(C(N)=O)c1	-29	80	78	101
65	CC1(C)Cc2nc3sc(C(=O)NCCO)c(N)c3cc2CS1	-29	97	97	98
66	Fc1ccc(-c2cc(-c3cc(F)cc(F)c3)n3ncnc3n2)cc1	13	.	.	102
67	CNc1ccccc1C(=O)OCC(=O)c1c[nH]c2ccccc12	-34	85	97	.
68	CCCN(C(=O)C(C)C)c1nnc(-c2cc(OC)c(OC)c(OC)c2)s1	20	81	82	102
69	CC(=O)NC1=NN(C(C)=O)C(c2cccc3ccccc23)N1C(C)=O (stereo unspecified)	-29	118	88	103
70	Cc1cccn2c(=O)cc(CN3CCN(c4cnn(-c5ccccc5)c(=O)c4Cl)CC3)nc12	-73	78	89	.
71	O=C1C=C(Nc2ccc(F)c(C(F)(F)F)c2)c2ccccc2C1=O	48	89	58	.
72	CC(=O)NCC1OCCc2ccccc21 (stereo unspecified)	-12	90	79	98
73	CC(=O)Nc1ccc(SCC(=O)N(C)Cc2ccco2)cc1	-31	80	90	.
74	Cc1c(Cl)cccc1-n1ncc(C(=O)NCCN2CCN(C)CC2)c1C1CCN(C(=O)OC(C)(C)C)CC1	.	92	82	108
75	COc1cccc(N(C(=O)C(F)(F)F)C(C(=O)NC2CCCC2)c2cccs2)c1 (stereo unspecified)	-11	116	88	.

Additional structures.
item	SMILES	HCMV NEC inh	Sa growth 42C	Sa growth 42C second temp	GIV Gai3 FP
76	Cc1ccc(S(=O)(=O)c2nc(-c3cccc(Br)c3)oc2N2CCCCCC2)cc1	-19	99	85	97
77	Cc1ccc(S(=O)(=O)Nc2c(-n3cnnc3)nn(C)c2C)c(C)c1	-9	.	.	102
78	CC1=CC(C)C(C2OCC(CN3CCCCC3)O2)C(C)C1 (stereo unspecified)	-27	111	81	.
79	O=C(Cn1ncc2c(=O)oc3ccccc3c21)Nc1cc(F)ccc1F	-5	103	98	103
80	CCOC(=O)c1c(/N=C/c2c(O)ccc3ccccc23)sc2c1CCC2	-4	94	93	.
81	CCOc1ccc(Oc2cc3c(cc2NC(=O)CC(C)C)n(C)c(=O)c(=O)n3C)cc1	-30	.	.	98
82	CCCC(C(=O)Nc1ccc2c(c1)OCO2)c1ccccc1 (stereo unspecified)	0	128	85	.
83	CC1CCCN(CCCNC(=O)c2coc3nc4ccccc4nc23)C1 (stereo unspecified)	.	99	89	131
84	Cc1ccc2nc(NNC(=O)c3ccccc3)sc2c1	-13	56	22	104
85	Cc1cc(NNC(=O)c2ccccc2O)c2cccc(C)c2n1	-27	83	93	.
86	N#Cc1ccccc1NC(=O)COC(=O)CC1CC2CCC1C2 (stereo unspecified)	-10	122	82	.
87	CN(Cc1ccccc1)S(=O)(=O)c1cccc2cccnc12	-4	99	79	111
88	CCCNC(=O)C1CNc2ccccc2O1 (stereo unspecified)	2	91	91	.
89	O=c1[nH]c(CN2CCCCC2)nc2c1oc1ccccc12	-24	79	82	.
90	Cc1oc(-c2ccccc2)nc1CSc1nc2c(c(=O)[nH]1)CCC2	-23	102	90	102
91	COc1ccc(N=C2SCC(=O)N2c2ccc(OC)cc2)cc1	0	100	94	106
92	COC(=O)CNC(=O)CC12CC3CC(CC(C3)C1)C2	-11	90	91	.
93	COc1ccc(N2CCN(C(=O)c3cnc4scc(C)n4c3=O)CC2)cc1	-24	.	.	104
94	Cc1ccc(Cl)cc1N1CCN(C(=O)COCc2cc(-c3ccc4c(c3)OCO4)on2)CC1	.	93	92	101
95	Cn1c(CCc2ccc(NC(=O)CN3C(=O)COc4ccc(C(C)(C)C)cc43)cc2)nc2ccccc21	-24	.	.	107
96	CC(Sc1ccccc1)C(=O)Nc1ccccc1Cl (stereo unspecified)	-12	110	78	102
97	CC(C(=O)N1CCN(c2ccc(F)cc2)CC1)N1C(=O)c2ccccc2C1=O (stereo unspecified)	.	94	105	101
98	CCO/C(C)=C(\C#N)C(=O)O	5	105	94	.
99	Cc1oc(-c2ccccc2)nc1CNC(=O)Nc1ccccc1	.	90	89	104
100	CCCCN(C)C(=O)Cn1ncc2c(C)n(Cc3ccc(C)cc3)c(C)c2c1=O	-17	97	41	104
